Screening data as filed in PubChem.
Bead autofluor = counter-screen for toxin protease inhibitors: compound fluorescence; compound autofluorescence counterscreen, microsphere flow cytometry; stronger effect = higher value; fluorescence intensity (no concentration beside the values); 360,000 tested, 3.1% active; AID 624483;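 active = at least 3 SD above the mean of all compounds, about 16000 in these data; inconclusive = too few beads counted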;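 also: 100 nL of 1 mM stock went into each well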
BJeLR viability = BJeLR cell viability loss | BJeLR (HRASV12) viability, CellTiter-Glo ATP luminescence, 48 h; reference of the scale not given here | inhibition, % (test concentration not listed) | 300,000 tested, 0.17% active;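 active = replicate mean above 50%; inconclusive = above 50% but judged a plate artefact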;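 also: 50 nL library stock added to about 25 µL; numbers are from one replicate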
Mtb hypoxia rep = inhibitors of hypoxia-regulated fluorescent reporter in Mycobacterium tuberculosis | fluorescence inhibition, % (no concentration beside the values) | M. tuberculosis hypoxia-regulated fluorescent reporter, fluorescence | 300,000 tested, 0.1% active;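 active = 35 to 45% if threefold the growth effect, above 45% if 1.5-fold the growth effect; inactive = the rest, general growth blockers included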;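 also: wells of about 50 µL received 100 nL stock; 0% = vehicle wells and 100% = reference inhibitor wells; whole bacteria with a GFP reporter of the hypoxia response; strong numbers were not always called active; many hits fall short of the cut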
RN4220 kill = S. aureus RN4220 growth inhibition; inhibition, % (test concentration not listed); OD600, 16 h; 330,000 tested, 0.33% active;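 active = z-score of -3 or lower and OD600 up to 0.18 on both plates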;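 also: plate controls were untreated cells for no effect and reference antibiotic for full effect; stock transfer was 100 nL into about 80 µL; one replicate is shown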
Sa ugtP lethal = compounds lethal to S. aureus RN4220 ugtP deletion mutant; growth inhibition, % (test concentration not listed); OD600 growth, 16 h; some inactives read as strong as hits; 330,000 tested, 0.54% active; AID 1259309;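 active = z-score under -3 and OD600 up to 0.15 on both plates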;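 also: plate controls were untreated wells for no effect and antibiotic for full effect; wells of about 80 µL received 100 nL stock; the first replicate is given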
PrP 5UTR inh = inhibition of PrP 5' UTR reporter expression. cell-based PrP 5' UTR mRNA reporter, plate reader. inhibition, % (concentration not given with the values). 340,000 tested, 0.35% active;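 active = every replicate at 50% or more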;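 also: 0 = median of the neutral control wells; tested in H4 reporter cells; numbers are from one replicate; inactives centre near -14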
Mtb hypoxia rep growth = second read-out of Mtb hypoxia rep, no call of its own (marks repeat the call); growth inhibition, %; measured here: M. tuberculosis growth (absorbance);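 0% = vehicle and 100% = reference antibiotic; read after six days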
Active calls of the source: *; ? = inconclusive; / = not tested or not shown.

SMILES	Bead autofluor	BJeLR viability	Mtb hypoxia rep	Mtb hypoxia rep growth	RN4220 kill	Sa ugtP lethal	PrP 5UTR inh
Cc1ccc(NC(=O)NCc2cccnc2)cc1C	4303	3	6	2	1.3	5	-6
O=C(CCN1C(=O)c2ccccc2S1(=O)=O)NCc1ccccc1Cl	5320	-5	-2	-5	2.1	-2	3
CC1CCCN(Cc2nc3c(c(=O)n(C)c(=O)n3C)n2CCCc2ccccc2)C1 (stereo not drawn)	2592	1	2	0	4.1	0	-13
Cc1sc2ncnc(N3CCC(C(=O)N(C)CC(=O)Nc4ccccc4Cl)CC3)c2c1C	?	-6	-3	-1	4.6	10	11
CC(C)c1cccc(-c2ccc3c(c2)S(=O)(=O)c2cccc(C(=O)NCc4ccccc4)c2C3=O)c1	2964	/	6	8	7.4	-6	-8
CN(Cc1ccccc1)C(=O)CSc1n[nH]c(N)n1	3182	3	14	3	2.2	6	4
CCc1ccc(NC(=O)CSc2nnc(-c3cnccn3)n2C)cc1	5563	5	2	7	1.5	7	5
CN(C)N=Cc1ccc(Sc2ccccc2[N+](=O)[O-])o1	/	/	5	3	2.6	1	/
Cc1c(C#N)c(O)n(CCO)c(=O)c1N=Nc1ccc2c(c1)COC2=O	6113	-7	21	-3	2.7	17	-26
O=[N+]([O-])c1ccc(N2CCN(S(=O)(=O)c3ccc(Cl)c(Cl)c3)CC2)cc1NCCN1CCOCC1	2010	-6	1	7	-0.6	1	-3
COc1ccccc1C=NN1C(=O)c2cccc3cccc(c23)C1=O	/	/	4	6	8.6	3	/
OC(c1ccccc1)c1ccncc1 (stereo not drawn)	3897	1	-4	2	-6.5	0	-11
c1csc(CNc2nc3ccccc3n2CCN2CCOCC2)c1	8587	-5	4	5	-2.3	-6	-13
COc1ccc(CNC(=O)CCc2cc(OC)c(OC)c(OC)c2)cc1	3832	-4	8	7	1.7	0	-16
O=[N+]([O-])c1ccc(N=NN(CCO)CCO)cc1	2269	0	7	6	1.4	11	-6
CC(=O)NC(Cc1ccc(F)cc1)C(=O)NC1CCN(c2ncccc2[N+](=O)[O-])CC1 (stereo not drawn)	4292	-10	7	2	0.0	15	-9
CCOc1ccc(C(=O)NCC(=O)OCC(=O)Nc2ccccc2OCC)cc1	3366	3	/	/	2.1	8	-23
Cc1nc2c(cnn2-c2ccc(Cl)cc2)c(=O)n1-c1ccc(N2CCC(C)CC2)cc1	/	0	-4	0	0.9	-10	/
O=C(CN(C(=O)CNS(=O)(=O)c1ccccc1)C1CCCC1)NCC1CCCO1 (stereo not drawn)	4751	5	/	/	0.8	10	-10
CCc1cc(=O)oc2c(C)c(OCC(=O)NCc3ccccn3)ccc12	4581	1	-2	-9	6.4	2	13
COc1cccc2c1CCC(NC(C)=O)C2=O (stereo not drawn)	10373	-5	-1	1	3.8	-1	-24
COCc1ccc(C(=O)N2CCCC(CNC(=O)c3ccc(F)cc3)C2)o1 (stereo not drawn)	/	-16	2	-13	1.9	6	-15
N#Cc1c(-c2ccccc2)ccnc1N1CCOCC1	3954	7	-5	1	5.7	7	2
CN(CCOc1ccc(Br)cc1)C(=O)CNC(=O)c1ccc2ccccc2c1	5566	-5	0	10	-4.2	13	-6
CON(C)S(=O)(=O)c1cccc(C(=O)Nc2cccc(S(=O)(=O)NC3=NCCCCC3)c2)c1	3180	/	12	11	0.4	5	-8
COc1ccc(N(CC(=O)N2CCc3ccccc3C2)S(=O)(=O)c2c(C)[nH]c(=O)[nH]c2=O)cc1	5356	7	-4	1	4.3	5	-6
CC(C(=O)Nc1cc([N+](=O)[O-])ccc1Cl)N1CCN(c2ccccc2O)CC1 (stereo not drawn)	2463	-3	8	-5	1.4	11	-7
Cc1cc(C)c(OCC(=O)Nc2ccc3c(c2)OCO3)cc1C	8679	12	5	6	18	9	-86
Cc1ccc(OCCNC(=O)CNC(=O)c2ccc3c(c2)OCO3)cc1	5479	0	/	/	/	/	-8
CSCCOC(=O)c1[nH]c2c(c1C)C(=O)CC(c1ccco1)C2 (stereo not drawn)	4354	20	/	/	-0.9	1	18

One compound at a time (already shown). Order of values: Bead autofluor	BJeLR viability	Mtb hypoxia rep	Mtb hypoxia rep growth	RN4220 kill	Sa ugtP lethal	PrP 5UTR inh
COc1ccccc1C=NN1C(=O)c2cccc3cccc(c23)C1=O as listed: /	/	4	6	8.6	3	/
Cc1sc2ncnc(N3CCC(C(=O)N(C)CC(=O)Nc4ccccc4Cl)CC3)c2c1C as listed: ?	-6	-3	-1	4.6	10	11
CN(CCOc1ccc(Br)cc1)C(=O)CNC(=O)c1ccc2ccccc2c1 as listed: 5566	-5	0	10	-4.2	13	-6
COc1cccc2c1CCC(NC(C)=O)C2=O (stereo not drawn) as listed: 10373	-5	-1	1	3.8	-1	-24
CCc1cc(=O)oc2c(C)c(OCC(=O)NCc3ccccn3)ccc12 as listed: 4581	1	-2	-9	6.4	2	13

Additional results.
SMILES	Bead autofluor	BJeLR viability	Mtb hypoxia rep	Mtb hypoxia rep growth	RN4220 kill	Sa ugtP lethal	PrP 5UTR inh
COc1ccc(-c2cc3ccc(OCC(=O)NCC4CCC(C(=O)O)CC4)cc3oc2=O)cc1 (stereo not drawn)	4282	8	/	/	2.0	5	-22
COC(=O)Cn1c(C(O)c2ccccc2)nc2ccccc21 (stereo not drawn)	7563	5	4	5	3.8	3	-6
O=C(N/N=C/c1cccc2cccnc12)[C@H]1C[C@@H]1c1ccccc1	4059	9	/	/	/	/	13
Cc1ccc(C(=O)c2c[nH]cc2-c2ccccc2)cc1	3816	-9	-2	-3	4.1	-6	-4
COc1ccccc1CC(=O)NC1CCC(C)CC1 (stereo not drawn)	2105	1	0	-2	2.0	1	-19
O=C(c1ccccc1)c1ccc(Sc2ccc([N+](=O)[O-])cc2)cc1	4331	-2	9	6	1.1	4	-14
O=c1c(Cl)c(N2CCOCC2)cnn1-c1nc2ccccc2[nH]1	4582	3	14	0	7.4	2	-49
CC(OC(=O)c1ccccc1NCCO)C(=O)Nc1ccc(S(=O)(=O)N2CCOCC2)cc1 (stereo not drawn)	8078	3	7	-5	2.9	0	-17
Cc1noc(C)c1S(=O)(=O)N1CCCC(C(=O)NCc2ccccn2)C1 (stereo not drawn)	4671	-27	-10	-1	4.4	4	-4
O=C(CSc1ccc(F)cc1)NC1CCCCC1	2499	8	-8	-4	3.4	12	-53
COc1ccc(-c2n[nH]c(=S)n2CC(C)C)cc1	10398	-6	5	2	2.0	0	-19
CC(NC(N)=O)C(=O)Nc1ccc(Cl)c(S(=O)(=O)Nc2ccc(Br)cc2)c1 (stereo not drawn)	4200	-2	2	3	-5.3	4	-1
COc1ccc(C(=O)CC(=O)C(=O)Nc2ccc(OC)c(Cl)c2)cc1	3838	6	6	11	8.3	3	/
CCOC(=O)c1sc2ccccc2c1OC(=O)c1ccc(C)cc1	2618	3	-1	3	13	28	-8
COc1ccc(-c2cc(C(=O)Nc3sc4c(c3C#N)CCCC4)c3ccccc3n2)cc1	9669	/	-7	1	11	3	-13

The closing 2 compounds of the section above are carried over, then new ones follow.
SMILES	Bead autofluor	BJeLR viability	Mtb hypoxia rep	Mtb hypoxia rep growth	RN4220 kill	Sa ugtP lethal	PrP 5UTR inh
CCOC(=O)c1sc2ccccc2c1OC(=O)c1ccc(C)cc1	2618	3	-1	3	13	28	-8
COc1ccc(-c2cc(C(=O)Nc3sc4c(c3C#N)CCCC4)c3ccccc3n2)cc1	9669	/	-7	1	11	3	-13
CCOc1ccc(S(=O)(=O)N2CCCC(C(=O)N3CCOCC3)C2)cc1 (stereo not drawn)	5584	-4	/	/	/	/	4
Cc1cccc(C)c1NC(=S)N(CCN(C)C)Cc1cccs1	4276	1	3	1	1.4	4	-12
CCC(=O)c1ccc(OCc2ccc(C(=O)OC)cc2)cc1	2448	-5	7	0	4.2	4	-34
CC(NCc1cc(Br)ccc1OCC(N)=O)C12CC3CC(CC(C3)C1)C2 (stereo not drawn)	21485*	7	9	10	2.3	-1	-20
CCS(=O)(=O)N1CCC(C(=O)Nc2ccc3c(c2)CCC3)CC1	5577	-5	0	6	-2.8	-2	-14
CCOc1ccc(N(Cc2cc3ccc(C)cc3[nH]c2=O)C(=O)COC)cc1	4792	-1	/	/	2.2	-6	-5
O=C(Oc1ccccc1)N1CCCC1	3163	-3	12	-2	1.1	8	-24
CCOC(=O)C1=NN(c2ccccc2)C2=NC(C)=C(C(=O)OC)C(c3cccs3)N12 (stereo not drawn)	9628	3	0	-4	-0.5	-2	-25
COC(=O)C1=C(C)NC(=S)NC1c1sccc1C (stereo not drawn)	4146	10	5	8	8.3	18	-15
Cc1nn(CC(=O)NCc2cccnc2)c(C)c1[N+](=O)[O-]	4576	2	-1	-5	2.6	7	0
CCCCc1nc(NCCO)c(C#N)c2c1CCCC2	4374	-5	-2	1	13	11	-20
Cc1ccc(SCC(=O)Nc2oc(C)c3c(C)n[nH]c(=O)c23)cc1C	7952	/	3	2	-0.3	6	-23
CC(=O)Nc1ccc(NC(=O)CSc2ccc(C)cc2)cc1	3401	-14	9	8	5.4	9	-13
O=C(Nc1ccccc1Cl)c1cnccn1	11658	-1	7	5	-0.9	3	/
O=C(O)c1ccc(S(=O)(=O)N2CCCC2)cc1	3925	5	10	10	1.0	11	-27
CCOc1ccc(C2CC(=O)N(Nc3ccc([N+](=O)[O-])cc3[N+](=O)[O-])C2=O)cc1 (stereo not drawn)	5340	7	20	7	3.0	3	-17
CC(C)CCNC(=O)CCCc1ccccc1	3249	2	8	11	6.9	4	-22
CCOC(=O)N1CCC(Nc2c(NCCCN3CCN(CC)CC3)c(=O)c2=O)CC1	3981	2	0	-4	0.7	-1	-6
O=C(O)C(Cc1c[nH]c2ccccc12)N1C(=O)C2C3c4ccccc4C(c4ccccc43)[C@@H]2C1=O (stereo partly drawn)	4202	3	2	-5	24	0	-4
CSCCC(NC(C)=O)C(=O)OCC(=O)N(c1ccccc1)c1ccccc1 (stereo not drawn)	2586	2	-3	3	3.0	-4	-13
O=c1[nH]c2cc(Br)cnc2nc1C=C(O)c1ccc(F)cc1	/	/	-3	0	4.2	-25	/
CC(=O)c1c(N2CCN(c3ccccn3)CC2)nc(=S)n(-c2ccccc2)c1C	5163	-6	11	10	2.8	4	4
COc1ccc(C=NNC(=O)c2cc(C(C)(C)C)[nH]n2)cc1COc1ccc(F)cc1F	/	/	-5	-1	-0.8	2	/
Cc1sc2nc3c4ccccc4c(NCc4ccco4)nn3c(=O)c2c1C	3287	/	16	1	13	-29	-97
COC(=O)c1ccccc1N1C(=O)[C@@H]2C(c3ccc(F)cc3)=NO[C@@H]2C1=O	10779	5	5	13	2.7	1	-5
O=C(CCc1ccncc1)NC1CCCc2c1cnn2-c1cc(F)cc(F)c1 (stereo not drawn)	3999	-7	-1	0	-0.2	1	-6
COc1ccc(CN2CCC3CC2c2cc(Cl)ccc23)cc1 (stereo not drawn)	4228	/	-13	-4	2.0	-3	-18
Cn1cccc1C(=O)NC1CCCCCC1	6542	/	8	4	4.8	5	-30
CC(OC(=O)CCc1nc2ccccc2c(=O)[nH]1)C(=O)c1ccc(C(C)(C)C)cc1 (stereo not drawn)	1921	0	12	4	4.7	11	-20
COc1cc(C=NNC(=O)CCC(=O)NC2CCCCC2)ccc1C	/	/	14	0	2.3	8	/
N#Cc1c(SCC(N)=O)nsc1SCc1ccc(Cl)cc1	22700*	3	1	5	-0.4	75	-11
CC(=O)c1ccc2c(c1)Cc1cc(C(C)=O)ccc1-2	2254	16	-1	-6	9.7	10	-126
CCc1ccc[n+](-c2[nH]c(=O)sc2/C=N/N=C(\[O-])c2ccncc2)c1	6267	-4	/	/	/	/	-18
CCOC(=O)c1c(C)nn(-c2ccc(NC(=O)c3cccs3)cc2)c1C	5266	12	2	6	-7.6	5	-10
Cc1sc2nc(SC(C)C)nc(N)c2c1C	6908	-2	18	14	-0.8	3	-52
CC1CC(C)CN(S(=O)(=O)c2cc3c4c(c2)CCN4C(=O)CC3)C1 (stereo not drawn)	?	-1	4	0	5.5	4	-20
O=[N+]([O-])c1ccc(NC(=S)N2CCN(c3ccccn3)CC2)cc1	3608	13	11	-4	-3.7	3	-32
CCN(c1ccc(OC)cc1)S(=O)(=O)c1nnc(NC(=O)C(C)C)s1	3462	4	-8	-10	8.8	8	-7
